nsP2pro inh = CHIKV nsP2 protease inhibition, primary qHTS; Q8JUX6; FRET peptide cleavage, nsP2pro, fluorescence 1 h; Potency, µM (titrated, usually from 24.9 µM), for the others: at the top dose activity change, negative = inhibition, most hits filed as inhibitors; 31,000 tested, 1.1% active; active means well fitted inhibition curve with a large enough effect; inconclusive means small, poorly fitted or top-dose-only effect; inactive means no such curve, though single readings can be large or run the other way; further: nearly all actives have a fitted effect of over 60% in size; a reference inhibitor and vehicle were the controls
Starred values were filed as active, the others as inactive; i = inactive; ? = inconclusive; & = joins results of further samples; [ ] = remark or other dose. On the % scale 0 is the no-effect control and ±100 the full control effect; potency means the concentration at half of the fitted maximal effect.

mol | nsP2pro inh
Cc1ccc(C(=O)c2oc3ccccc3c2NC(=O)c2cc(=O)c3cc(C)ccc3o2)cc1 | -9.3%
COc1cc(O)c2c(=O)c(O)c(-c3ccc(O)c(O)c3)oc2c1 | 16.8%
CCN1C(=O)c2ccccc2Sc2ccc(NC(=O)c3cccc(C)c3)cc21 | -4.5%
CCCCC(CC)CCC(CC(C)C)OS(=O)(=O)O (stereo not drawn) | 189.0%[activator]
O=C(NCC(c1ccc2c(c1)OCO2)N1CCOCC1)c1ccccc1F (stereo not drawn) | ?
CCC(C)(C)C(=O)NCCc1noc(-c2ccccc2)n1 | i
Fc1cnc(-c2ccccc2C(F)F)nc1NCC1CCN(c2cnccn2)CC1 | -4.0%
COc1ccc2c(O[C@H]3CC4C(=O)N(C)CCCC/C=C\[C@@H]5C[C@@]5(C(=O)NS(=O)(=O)C5CC5)NC(=O)[C@@H]4C3)cc(-c3nc(C(C)C)cs3)nc2c1C (stereo partly drawn) | 72.7%[activator]
Cc1ccc(C(=O)c2cn(CC(=O)Nc3ccc4c(c3)OCCO4)c3nc(C)ccc3c2=O)cc1 | -19.0%
COCCNC(=O)CCCn1c(SCC(=O)Nc2cccc(C)c2)nc2c(sc3ccccc32)c1=O | -17.5%
O=Cc1ccc(N2CCN(S(=O)(=O)c3ccc4c(c3)CC(=O)N4)CC2)cc1 | i
Cc1cc(C(F)(F)F)nc(CNc2cc(C3CC(O)C3)nc(N)n2)n1 (stereo not drawn) | -10.1%
O=S(=O)(Nc1cccc2cccnc12)c1ccccc1O | i
Cc1nn(-c2ccccc2)c2c1C(C)N(C1CCN([S+](=O)([O-])c3c(C)noc3C)C1)C2=O (stereo not drawn) | -8.9%
C[C@@H]1CCC2C(C)(C)[C@H](O)[C@H](O)C[C@]2(C)[C@@]12Cc1c(O)cc3c(c1O2)CN(CCCC(=O)O)C3=O (stereo partly drawn) | -4.4%[10 µM]
C[C@@H](NC(=O)c1ccc(C#Cc2cccc(F)c2)cn1)C(C)(C)O | -0.3%
Cn1nnnc1Sc1ncnc2n[nH]c(-c3cccc(S(C)(=O)=O)c3)c12 | 2.82µM*
Cc1ccc(CCNC(=O)c2ccc(CNS(=O)(=O)c3ccccc3)cc2)cc1 | -15.6%
C=C1C(O[C@@H]2O[C@H](CO)[C@@H](O)[C@H](O)[C@@H]2O)CC2C(C)(C)C(O)CCC2(C)C1CC/C(C)=C\CO (stereo partly drawn) | 6.6%[10 µM]
Cc1cccc(-c2nc(Cn3c(-c4ccc(F)cc4)nc(C)c(CCO)c3=O)c(C)o2)c1 | -3.0%
COc1cc(C(=O)NC2CCN(C)CC2)ccc1Nc1ncc2c(n1)N(C1CCCC1)CC(F)(F)C(=O)N2C | 118.0%[activator]
Cc1ccc(NC(=O)CSc2nc3nccnc3c(=O)n2CCc2c[nH]c3ccccc23)cc1C | -22.8%
CCCCOC(=O)c1ccc(NC(=O)Cc2coc3c(C)c(C)ccc23)cc1 | -20.2%
CC(C)(C)C1CCc2c(sc(NC(=O)c3cc4ccccc4c(=O)o3)c2C(N)=O)C1 (stereo not drawn) | -25.3%
CC(=O)c1ccc(O[C@@H]2OC[C@@H](O)[C@H](O)[C@H]2O[C@]2(CO)O[C@H](CO)[C@@H](O)[C@@H]2O)c(O)c1 | ?
CCCNC(=O)N1CC[C@@H]2[C@H]1C(=O)N(c1cccc(F)c1)C(=O)N2Cc1cccs1 | -25.6%[39.2 µM]
CC(O)c1cc(C(=O)N[C@@H](C)Cn2ccc(-c3ccc(C#N)c(Cl)c3)n2)n[nH]1 (stereo partly drawn) | -4.7%&4.9%
N#Cc1ccccc1CN1CCCCC12Cc1ccccc1CNC2=O (stereo not drawn) | -12.5%
COc1cccc(CN(C)c2ccc([S+](=O)([O-])Nc3nccs3)cc2)c1O | 0.8%
CC1=CC2(O)/C=C/C(C)(O)C(O)C(O)/C=C/C(=O)OC23C(=O)NC(CC(C)C)C3C1C (stereo not drawn) | 11.6%[10 µM]
CCc1c(C)sc(NC(=O)c2cc3nc(-c4ccc(OC)cc4)cc(C(F)(F)F)n3n2)c1C(=O)OC | -17.5%
O=C1CCc2cc(S(=O)(=O)Nc3cccc(B(O)O)c3)ccc2N1 | -0.6%
COCC(=O)N[C@H]1C[C@@H](CO)N(Cc2scnc2C)C1 | -5.9%
CC(C)c1ccccc1-c1ncc(F)c(NCC2CCN(c3cccnc3)CC2)n1 | 1.4%
COc1ccc(C(=O)N2CCOC[C@H](Oc3cccnc3)C2)cc1 | ?
CCOc1cccc(CNc2ccc(O)cc2)c1OCc1ccccc1Cl | 11.2µM*
Cc1nn2c(c1-c1ccccc1C(C)C)N(C(=O)c1cccnc1)CCC2 | i
Cc1ccccc1C(=O)N1CCc2cc(-c3ccnc(NC(=O)Cc4ccccc4)n3)ccc21 | i
CCOc1ccc(NC(=O)CC2C(=O)N(c3ccc(F)cc3)C(=O)N2Cc2ccc(OC)c(OC)c2)cc1 (stereo not drawn) | -17.4%
CCOc1ccccc1NC(=O)NCc1ccc2c(c1)CCN2C(=O)c1ccccc1 | -21.0%
O=C(COc1ccccc1[N+](=O)[O-])Nc1cccc(-c2nc3ccccc3s2)c1 | -18.2%
CCOc1ccc(C2NC(=O)c3c(COC)cc(C)nc3N2Cc2ccccc2)cc1OC (stereo not drawn) | -16.1%
Cc1ccc(CNC(=O)C2CCCN(Cc3nc(-c4cccc(C)c4)oc3C)C2)cc1 (stereo not drawn) | 2.0%
Cn1nccc1C(=O)N1CCCC(c2nc(-c3ccccc3)no2)CCNC(=O)CC1 (stereo not drawn) | -12.7%
CC(C)NCC(O)COc1ccc(COCCOC(C)C)cc1 (stereo not drawn) | -1.7%
CCC(CC)n1c(=O)n(CCCc2cccnc2)c2cc(C(=O)O)cnc21 | 2.5%
O=S(=O)(c1ccc2ccccc2c1)n1nc(-c2ccco2)nc1NCc1cccc(Cl)c1 | -14.4%
CCc1ccc(NC(=O)CSc2nc3c([nH]c4ccccc43)c(=O)n2-c2ccc(C)cc2)cc1 | -17.7%
CCC1CC2C(C)=CC3CCCCC3C2(C)C2(OC(=O)C(C)(O)OC2=O)O1 (stereo not drawn) | -8.3%
COc1cc(-c2ccno2)ccc1S(=O)(=O)N1CCN(c2cc(C)ccc2C)CC1 | -18.1%
COc1ccc(NC(=O)CCNS(=O)(=O)c2cccc3nsnc23)cc1 | -18.6%
CC(=O)Nc1ccc(C)c(C(=O)N[C@H](C)c2cccc3ccccc23)c1 | -7.3%
O=C(COc1ccc(Cl)cc1)NCC(c1cccs1)S(=O)(=O)c1ccc(F)cc1 (stereo not drawn) | -10.3%
CCCCC1CCN(CCCC(=O)c2ccccc2C)CC1 | -14.3%
COc1ccc(CC(=O)NC[C@@H]2CC[C@H]3C[C@@H]2C3(C)C)cc1 | -3.8%[39.2 µM]
COc1ccc(C(C)n2c(C)c3c(C)nnc(C)c3c2C)cc1 (stereo not drawn) | -20.2%
CC(C)CCNC(=O)CSc1nc2ccccc2nc1Cc1ccc(Cl)cc1 | -17.5%
O=C(Cn1nc2n(c1=O)CCCC2)NCCc1ccc(Cl)cc1 | i
CN(CCc1ccccn1)C(=O)CCC[C@@H]1[C@H]2CCCN3CCC[C@@H](CN1C(=O)c1ccccc1)[C@@H]23 | -0.8%
COC(=O)CC(NC(=O)Nc1cccn2nc(C)nc12)c1ccccc1 (stereo not drawn) | -15.3%

Shown with each value named: 4 of the compounds above
smiles: CCN1C(=O)c2ccccc2Sc2ccc(NC(=O)c3cccc(C)c3)cc21
  nsP2pro inh: -4.5%

smiles: CCCCC(CC)CCC(CC(C)C)OS(=O)(=O)O (stereo not drawn)
  nsP2pro inh: 189.0%[activator]

smiles: O=C(NCC(c1ccc2c(c1)OCO2)N1CCOCC1)c1ccccc1F (stereo not drawn)
  nsP2pro inh: ?

smiles: CCC(C)(C)C(=O)NCCc1noc(-c2ccccc2)n1
  nsP2pro inh: i

Copied from the list:
Value of `Cn1nccc1C(=O)N1CCCC(c2nc(-c3ccccc3)no2)CCNC(=O)CC1` (stereo not drawn) in nsP2pro inh: -12.7%
Value of `Cc1ccc(C(=O)c2cn(CC(=O)Nc3ccc4c(c3)OCCO4)c3nc(C)ccc3c2=O)cc1` in nsP2pro inh: -19.0%
Value of `O=C(COc1ccc(Cl)cc1)NCC(c1cccs1)S(=O)(=O)c1ccc(F)cc1` (stereo not drawn) in nsP2pro inh: -10.3%

Further records follow.
mol | nsP2pro inh
O=C(Nc1cnc(-c2ccc(Cl)cc2)nc1)c1cccs1 | i
O=C(NNCS(=O)(=O)O)c1ccncc1 | -18.1%
CCOC(=O)CCc1c(C)nc2c(-c3ccccc3)c(C)[nH]n2c1=O | -0.9%
Cc1cccc(NC(=O)NC2N=C(c3ccccc3)c3ccccc3N(CC(=O)c3ccccc3C)C2=O)c1 (stereo not drawn) | -2.5%
COc1ccccc1CNC(=O)[C@@H]1OCCN(C2CC2)[C@H]1c1ccccc1 | i
Clc1ccc(Cn2c(CN3CCCC3)nc3ccccc32)cc1 | 40.7%[activator]
CCOC(=O)c1ccc(N2C(=O)c3n[nH]c(-c4ccco4)c3C2c2cccc(F)c2)cc1 (stereo not drawn) | 17.6%
Cc1ccc(-c2cn3c(n2)sc2cc(C(=O)NCc4cccs4)ccc23)c(C)c1 | -15.3%
O=C(CCN1N=C(c2ccccc2)CCC1=O)NCCc1ccc(Cl)cc1 | -21.5%
O=C1CCc2cc(S(=O)(=O)Nc3ccc(-c4ccccc4)cc3)ccc2N1 | 3.7%
CC12CCC3C1C(c1c(cc(O)c(C(=O)c4ccccc4)c1O)O2)C3(C)C (stereo not drawn) | 24.2%
O=C(O)CC1CC(c2ccccc2)=NO1 (stereo not drawn) | -2.1%[10 µM]
CC(=O)NCCC(=O)N1CCCCC1C(=O)Nc1ccc(-n2nc(C)cc2C)cc1 (stereo not drawn) | 0.5%
Nc1c(Br)cc(Br)cc1CNC1CCC(O)CC1 (stereo not drawn) | 7.1%&-2.2%
Cc1ccccc1NC(=O)CC(NCc1cccnc1)C(=O)O (stereo not drawn) | -19.4%
CC1CCCCCC(=O)c2c(O)cc(O)cc2CC(=O)O1 (stereo not drawn) | -19.9%
CCN1C(=O)CCc2cc(NC(=O)c3ccn(CC)n3)ccc21 | i
CC(C)(C)NCC(O)COc1cccc2c1CCC(=O)N2 (stereo not drawn) | -4.6%
COc1cccc(/C=C/c2nc(C#N)c(N(C)Cc3ccccc3)o2)c1 | -14.7%
COc1ccc(CNC(=O)c2ccc(NC(=O)N3CCSc4ncccc43)cc2)c(OC)c1 | -19.0%
NC[C@H]1O[C@H](O[C@H]2[C@H](O)[C@@H](O[C@H]3O[C@H](CO)[C@@H](O)[C@H](N)[C@H]3O)[C@H](N)C[C@@H]2N)[C@H](O)[C@@H](O)[C@@H]1O | -1.0%[2.68 µM]
O=C(NCc1ccco1)Nc1cccc(-c2ccc(N3CCCC3)nn2)c1 | -9.8%
COc1cccc(Nc2ccnc(-c3nnc(C)n3C3CCCCC3)c2)c1 | i
Cc1ccc2c(=O)cc(C(=O)Nc3sc4c(c3C(=O)NCC3CCCO3)CCCC4)oc2c1C (stereo not drawn) | -19.4%
CCCCC(=O)O[C@]1(C(=O)CO)CC[C@H]2[C@@H]3CCC4=CC(=O)CC[C@]4(C)[C@H]3[C@@H](O)C[C@@]21C | 5.8%
Fc1ccc(-c2ccc(Nc3nc(-c4ccncc4)nc4ccccc34)cc2F)c(Cl)c1 | -0.8%
CCC(=O)Nc1cc(-c2cn3cccnc3n2)ccc1OC | -12.6%
Cc1ccc(C(=O)NCC(=O)OCc2cc(=O)n3c(C)csc3n2)cc1 | -17.2%
COc1ccc(CC2C(=O)NC(C)C(=O)N(C)C3Cc4ccc(cc4)Oc4cc(ccc4OC4OC(CO)C(O)C(O)C4O)CC(C(=O)NC(C)C(=O)NC(CCC(=O)O)C(=O)N2C)N(C)C3=O)cc1 (stereo not drawn) | 22.5%[5.1 µM]
CCNC(=O)N1CCOc2ccc(CN3CCOCC3)cc2C1 | 0.6%
O=C(Nc1ccc(-c2nc3ccccc3[nH]2)cc1)c1ccc2c(c1)OCCO2 | -8.2%
CNC(=O)[C@@H]1CN(C(=O)c2cc3cc(OC)ccc3[nH]2)C[C@H]1COC | -1.7%
COc1ccccc1C(=O)N1CCC2(CC1)NC(=O)c1ccccc1O2 | ?
CCc1ccc(NC(=O)CSc2nnc(-c3cc4occc4n3C)n2-c2ccccc2C)cc1 | -16.7%
O=C(Nc1cccc(F)c1)[C@@H](c1ccccc1)N1Cc2ccccc2C1=O | -8.5%
COCCNC(=O)C(NC(=O)c1cccc(OC)c1)C1CCN(C(=O)COC)CC1 (stereo not drawn) | 1.6%
O=C(NCc1ccccc1)c1cccc(NC(=O)N2CCSc3ncccc32)c1 | -23.0%
Cc1n[nH]c(C)c1S(=O)(=O)N1CCCC(C(=O)Nc2ccc(Cl)cc2)C1 (stereo not drawn) | -14.1%
CNC(=O)c1cc(C#N)cc(C)c1NC(=O)c1cc(Br)nn1-c1ncccc1Cl | 22.6%
O=C(NCCc1ccc(Cl)cc1)C(=O)NCC(c1ccco1)S(=O)(=O)c1cccs1 (stereo not drawn) | -18.8%
CC12CC(c3ccoc3)OC(=O)C1CCC1(C)C2CCC(O)C1(C)O (stereo not drawn) | ?
CS(=O)(=O)N1CCCOCCNC(=O)[C@@H]2CCC[C@@H]21 | 1.7%
O=C1[C@H]2CN(Cc3ccncc3)C[C@H]2C(=O)N1Cc1ccc2c(c1)OCO2 | 3.4%
Nc1ncnc2c1c(I)cn2[C@@H]1O[C@H](CO)[C@H](O)C1O (stereo partly drawn) | ?

Screening data (PubChem)

Some of the compounds tested; the hit share may differ from the screen's.
